GLA inh pH 4.5: alpha-galactosidase A (human) inhibition, pH 4.5; P06280; purified enzyme, 4-MU-alpha-Gal fluorescence, pH 4.5; activity change, negative = inhibition, % at 105 µM; 230,000 tested, under 10 active; AID 1467; inconclusive = small, poorly fitted or top-dose-only inhibition, or a rising curve; inactive = flat fitted curve, though single readings scatter; no compound was filed as active;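 further: 0% = full activity with enzyme and -100% = basal without enzyme; dose as in the result columns while the protocol names 77 µM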
miR-21 FLuc: raises the signal of a miR-21 reporter | HeLa miR-21 FLuc reporter, luciferase, 48 h | Potency, µM (doses to about 38.3 µM), for inactives: top-dose reporter change, positive = more light | 340,000 tested, under 10 active | AID 2288; active = well fitted rising curve with a large enough effect; inconclusive = small, poorly fitted or top-dose-only effect; inactive = no such curve, though single readings can be large or run the other way;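 further: % of control where 0% means no effect; miR-21 action dims this reporter so a rising signal means less miR-21 action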
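Luminescence from a firefly luciferase reporter carrying a miR-21 binding site downstream, stably expressed under a CMV promoter in HeLa cells that make miR-21 endogenously, reports miRNA modulation after 48 h compound exposure up to approximately 40uM final.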
Rango dissoc inh: inhibitors of RanGTP-induced Rango-importin beta complex dissociation. O95149+P62826. Biochemical FRET Rango-importin beta, RanGTP-induced dissociation. Potency, µM (doses to about 46.1 µM), for the others: at the highest dose activity change, negative = inhibition. 0.071% of 340,000 active. AID 540253; active means falling FRET ratio curve, often poorly fitted, with flat reads before Ran was added; inconclusive means other falling curves, or compound fluorescence or quenching; inactive means flat or rising ratio curve;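 further: potency means the concentration at half of the fitted maximal effect; % of control where 0% means no effect; nearly all actives have a fitted effect of over 45% in size; -100% = wells without RanGTP and RCC1; the record marks most hits as doubtful in a second field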
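Compounds sat 5 min at room temperature with 0.1 uM Rango biosensor plus 0.25 uM importin beta, then FRET pre-read. RanGTP-RCC1 (0.6 uM Ran, 2mM GTP, 0.2 uM RCC1) added for 45 min, and the CFP/YFP post-read measured blocked complex dissociation.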
Rango complex inh: prevents formation of the Rango-importin beta complex; Rango CFP/YFP FRET sensor + importin beta, 45 min; Potency, µM (titrated, usually from 92.2 µM), without a hit: top-dose inhibition of complex formation; AID 540263; 0.031% of 340,000 active; Q14974; active = rising FRET ratio curve, often small or poorly fitted; inconclusive = mostly compound fluorescence or quenching in the first reads; inactive = flat curves in all reads;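 further: potency means the concentration at half of the fitted maximal effect; 0% = DMSO wells and 100% = buffer wells lacking importin beta; nearly all actives have a fitted effect of over 15% in size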
Target sequence (Q14974 whole entry, looked up): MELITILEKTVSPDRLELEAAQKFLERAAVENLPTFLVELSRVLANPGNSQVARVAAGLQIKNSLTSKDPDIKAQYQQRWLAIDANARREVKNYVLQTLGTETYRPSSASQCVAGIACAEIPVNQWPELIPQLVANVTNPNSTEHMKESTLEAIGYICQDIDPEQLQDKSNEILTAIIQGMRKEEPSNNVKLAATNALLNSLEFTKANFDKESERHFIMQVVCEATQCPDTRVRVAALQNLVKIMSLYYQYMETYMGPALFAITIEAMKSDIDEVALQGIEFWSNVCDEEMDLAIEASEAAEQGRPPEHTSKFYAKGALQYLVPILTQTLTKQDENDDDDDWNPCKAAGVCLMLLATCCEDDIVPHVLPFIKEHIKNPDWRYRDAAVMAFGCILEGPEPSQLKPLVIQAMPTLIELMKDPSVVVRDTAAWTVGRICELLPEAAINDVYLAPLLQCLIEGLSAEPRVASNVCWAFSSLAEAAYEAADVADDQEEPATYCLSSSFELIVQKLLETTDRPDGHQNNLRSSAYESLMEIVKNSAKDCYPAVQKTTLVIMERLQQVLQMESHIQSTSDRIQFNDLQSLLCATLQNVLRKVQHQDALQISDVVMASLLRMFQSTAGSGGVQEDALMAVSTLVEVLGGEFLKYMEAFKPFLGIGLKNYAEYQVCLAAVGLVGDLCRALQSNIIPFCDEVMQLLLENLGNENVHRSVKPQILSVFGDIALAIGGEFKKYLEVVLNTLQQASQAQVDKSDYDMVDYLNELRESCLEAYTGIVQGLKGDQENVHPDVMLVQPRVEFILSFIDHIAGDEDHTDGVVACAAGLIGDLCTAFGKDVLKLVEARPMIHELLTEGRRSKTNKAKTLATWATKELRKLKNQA
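Inhibition scored from the CFP 486 nm/YFP 530 nm FRET ratio 45 min after adding 0.125 microM importin beta to 50 nM Rango biosensor preincubated 5 min with compound (room temperature, PBS with DTT, Tween-20, BSA). No-importin wells as positive control.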
Active calls of the source: *; ? = inconclusive; / = not tested or not shown; & = joins results of further samples; [ ] = dose if it differs, or a comment. This is a subset (hit frequency here may not be typical).

SMILES | GLA inh pH 4.5 | miR-21 FLuc | Rango dissoc inh | Rango complex inh
COc1cc(C(=O)OCC(=O)N(CC(C)C)C2CCS(=O)(=O)C2)cc(OC)c1C (stereo not given) | / | / | 8% | -1.2%
C[C@H](CO)N1C[C@H](C)[C@@H](CN(C)S(=O)(=O)c2ccccc2)Oc2c(NC(=O)NC3CCCCC3)cccc2C1=O | / | / | -17% | 2.9%
O=C(NCCN1C(=O)S/C(=C\c2ccc(Cl)cc2Cl)C1=O)C1=COCCO1 | / | / | -6% | 4.7%
CC(C)C[C@H]1CNC(=S)N1CC1CCCN1C[C@H](CC(C)C)N1C[C@H](Cc2ccccc2)N(CC2CCCCCC2)C1=S (stereo not given in full) | / | / | 25% | -3.3%
CC(O)(C#CCN1CCCC1)c1ccccc1 (stereo not given) | 2 | 0% | 10% | -3.4%
COc1ccc(C(=O)N/C(=C\c2cn(C)c3ccccc23)C(=O)NCCCn2ccnc2)cc1OC | / | 1% | 13% | -3.8%
Cc1cc(-c2ccccc2)nc(N(C)C)c1S(C)(=O)=O | 1 | -6% | 4% | 2.4%
Cc1cccc(C)c1NCc1nnc(SCC(=O)Nc2nc(-c3ccccc3)cs2)n1-c1ccccc1 | -5 | -3% | -13% | -3.0%
CCN(CC)CCCN=C(N)N | -5 | 2% | -1% | 2.4%
O=C(Nc1ccc2c(c1)OCCO2)c1ccc(Cl)c(S(=O)(=O)N2CCOCC2)c1 | 0 | 4% | ? | -0.1%
CN(C)c1ccc(NC(=O)CSc2nc3ccccc3c(=O)n2CC2CCCO2)cc1 (stereo not given) | / | -3% | 1% | 1.7%
O=C(Nc1cccc(C(F)(F)F)c1)C1=CC=CN2CCS(=O)(=O)N=C12 | / | / | 9% | 4.5%
COCCNC(=O)CSc1nc2cc(OC)c(OC)cc2c(=O)n1CCc1ccc(S(N)(=O)=O)cc1 | -7 | 0% | 0% | -1.4%
COC(=O)C1=C(C(=O)c2ccccc2)C(c2cccs2)n2nnnc2N1 (stereo not given) | 1 | -6% | ? | ?
CSc1cc(CS(=O)(=O)c2ccccc2)nc(-c2ccccc2)n1 | / | -5% | 0% | -3.3%
COC(=O)Cc1c(C)c2ccc(O)c(CNCc3ccc(OC)c(OC)c3)c2oc1=O | / | 2% | ? | ?
O=C(O)c1ccccc1Sc1ncnc2sccc12 | -2 | 0% | 7% | -2.6%
COc1ccc(C)cc1S(=O)(=O)n1cnc2ccccc21 | / | -1% | 2% | -1.2%
COc1ccc(-c2nn(C)c(=O)c3ccccc23)cc1CNC(=O)C1CCCCC1 | -9 | 1% | -2% | -0.6%
Brc1ccc(CSc2nnc3ccccn23)cc1 | 6 | -51% | 0% | 2.2%
O=C(CCS(=O)(=O)c1ccccc1)OCC(=O)N1CCN(S(=O)(=O)c2ccc(Cl)cc2)CC1 | / | / | -17% | 0.6%
CCOc1ccc2cc(S(=O)(=O)N3CCOCC3)ccc2c1 | -7 | -5% | -8% | 2.9%
CCn1nnc(-c2ccccc2NC(=O)c2cc(OC)c(OC)c(OC)c2)n1 | 1 | -2% | 5% | 2.1%
COc1ccc(OC)c(C2C(C(C)=O)=C(O)C(=O)N2c2ccc(F)cc2)c1 (stereo not given) | -8 | -16% | 22% | 1.0%
CS(=O)(=O)N(Cc1ccc(C(=O)Nc2ccccc2Sc2ccccc2)cc1)c1ccccc1 | -14 | -2% | -12% | 0.8%
Cc1nnc(NCCO)c2ccccc12 | 1 | -3% | -19% | 0.2%
O=S(=O)(c1cccc(-c2csc(-c3cccnc3)n2)c1)N1CCCCC1 | -1 | -5% | -12% | 2.3%
Cc1ccc(S(=O)(=O)NC2=NCN(CC(=O)O)CN2)cc1 | / | 0% | 6% | -4.0%
CC(C)(O[C@@H]1O[C@H](CO)[C@@H](O)[C@H](O)[C@H]1O)[C@@H]1CC=C(C(=O)O)CC1 | / | / | -10% | 3.4%
O=C(COC(=O)c1cnccn1)c1ccc(Br)cc1 | 7 | 0% | 0% | -1.1%
Cc1ccc(C(=O)NCCCN2CCOCC2)o1 | -1 | -4% | 0% | -2.8%
Cc1nccn1S(=O)(=O)c1cc([N+](=O)[O-])ccc1Cl | 6 | -4% | -9% | 2.4%
O=c1nccc(SCc2ccc(Cl)cc2Cl)[nH]1 | 1 | -14% | 0% | 1.9%
O=C1Nc2ccccc2/C1=C\c1cccn1-c1ccc(OC(F)(F)F)cc1 | -2 | 7% | -12% | 8.5%
COc1ccc(OCC(=O)Nc2ccc(NC(=O)c3cccs3)cc2)cc1 | / | -6% | -27% | -0.6%
CC(=O)Nc1ccc(S(=O)(=O)Nc2nccs2)cc1 | / | -4% | 12% | -0.2%
CCn1c(SCC(=O)N(C)C2CCCCC2)nc2cc(S(N)(=O)=O)ccc21 | / | / | -1% | -2.8%
CC(=O)c1c(C)[nH]c(C(=O)Nc2c(C)n(C)n(-c3ccccc3)c2=O)c1C | -2 | -6% | 5% | ?
CCOC(=O)C1C2C=CC3(CN(Cc4ccco4)C(=O)C13)O2 (stereo not given) | -5 | -2% | -2% | 3.3%
Cc1ccc(C(=O)N/C(=C/c2ccc(N(C)C)cc2)C(=O)NCC2CCCO2)cc1 (stereo not given) | / | 1% | -1% | 0.7%
COc1ccccc1N1CCN(C(=O)/C=C/c2ccco2)CC1 | 6 | -45% | 20% | -2.5%
CC12CN(NC(=O)c3ccc(Cl)cc3)C3(C#N)CC1CCC23C (stereo not given) | -13 | 2% | 8% | 1.2%
COc1ccc(S(=O)(=O)N2CCN(Cc3cc(OC)c(OC)cc3OC)CC2)cc1 | / | -6% | -3% | 1.3%
CCCc1cc(=O)[nH]c(Nc2ccc(Cl)cc2)n1 | 4[21.1 µM] | 17% | 14% | -4.5%
COc1ccc(NC(=O)[C@@H](NC(=O)c2ccccc2F)C(C)C)cc1S(=O)(=O)N1CCOCC1 | -9 | -2% | -5% | 0.0%
CC(=O)C1=C(O)C(=O)N(c2cccc(C(=O)O)c2)C1c1ccccc1F (stereo not given) | 6 | -1% | ? | ?
Cc1ccc(C(=O)NC2CC3CCCC(C2)N3Cc2ccccc2)cc1 (stereo not given) | / | -1% | -9% | 0.3%
Cc1cccc(OCC(=O)NCC(=O)n2nc(C)cc2C)c1 | 4 | -1% | 13% | 0.5%
CCC(=O)c1ccc(O)c(OC)c1 | / | -7% | 1% | 0.7%
COc1cc2c(cc1OC)-c1nncn1C(C)(C)C2 | 1 | -14% | 3% | 0.9%
Cc1noc(C)c1CSCC(=O)Nc1nnc(CC(C)C)s1 | / | -4% | -1% | -0.5%
COc1ccc(/C(N)=N/OC(=O)CCCc2ccccc2)cc1OC | -7 | -26% | 2% | -3.4%
Cc1ccc(N(C(=O)Cn2nnc(-c3ccc(F)cc3)n2)C(C(=O)NC(C)(C)C)c2ccncc2)cc1 (stereo not given) | 0 | -1% | -3% | -2.8%
COc1ccc(C2/C=C\CN3CCC[C@H]3C(=O)N2Cc2ccc(F)cc2)cc1 (stereo not given in full) | / | / | -8% | -0.3%
CC1CC(C)CN(C(=O)c2ccc3ccccc3c2)C1 (stereo not given) | / | / | 1% | ?
COc1cccc(/C=C/C(=O)OCC(=O)Nc2nnc(-c3ccccc3)o2)c1OC | / | / | 1% | 6.1%
CC(=O)c1cc2c(cc1N/C(=N/S(=O)(=O)c1ccccc1)c1ccc(Cl)cc1)OCO2 | 12 | -5%&-10% | 7% | -0.2%
CCCCCCSc1cc(C)nc2ncnn12 | -6 | -3% | 1% | 1.5%
Cc1ccc(NC(=O)Nc2ccnc(-c3cccnc3)n2)cc1 | 5 | 5% | 0% | 1.7%
CCOC(=O)c1cccc(C(=O)Oc2ccccc2)n1 | 2 | -2% | 7% | 2.5%

Pulled by structure from above, four records:
SMILES | GLA inh pH 4.5 | miR-21 FLuc | Rango dissoc inh | Rango complex inh
Cc1ccc(N(C(=O)Cn2nnc(-c3ccc(F)cc3)n2)C(C(=O)NC(C)(C)C)c2ccncc2)cc1 (stereo not given) | 0 | -1% | -3% | -2.8%
Cc1ccc(C(=O)NC2CC3CCCC(C2)N3Cc2ccccc2)cc1 (stereo not given) | / | -1% | -9% | 0.3%
CC(=O)C1=C(O)C(=O)N(c2cccc(C(=O)O)c2)C1c1ccccc1F (stereo not given) | 6 | -1% | ? | ?
COc1cccc(/C=C/C(=O)OCC(=O)Nc2nnc(-c3ccccc3)o2)c1OC | / | / | 1% | 6.1%

Going on with the list.
SMILES | GLA inh pH 4.5 | miR-21 FLuc | Rango dissoc inh | Rango complex inh
CCc1cc(-c2n[nH]c(C)c2-c2nc3ccccc3n2C)c(O)cc1O | -9 | 20% | 0% | 1.6%
O=C(Cc1cccc2ccccc12)Nc1ccc(N2CCOCC2)cc1 | 5 | 3% | -2% | -2.1%
C/C(CCC12CC3CC(CC(C3)C1)C2)=N\NC(N)=S | 7 | 17% | -1% | -0.5%
CC(C)(C)c1cc(C(=O)NCc2cccnc2)ccn1 | -10 | 2% | 28% | -3.1%
O=C(Nc1cccc(F)c1)c1ccc(S(=O)(=O)N2CCOCC2)cc1 | 5 | -2% | -11% | 0.1%
COc1ccccc1NC(=S)N1CCC(NC(=O)NC23CC4CC(CC(C4)C2)C3)CC1 | 6 | -4% | 9% | -0.1%
COc1ccc(NC2CCCN(C(=O)CCc3cccc(Cl)c3)C2)cc1 (stereo not given) | / | 2% | ? | -0.4%
Cc1ccc(NC(=O)c2cc(=O)[nH]c3ccccc23)cc1 | / | -10% | 14% | 1.4%
Cc1ccc(C(=O)N/C(=C\c2cccs2)C(=O)NCCc2c[nH]c3ccccc23)cc1C | -2 | 14% | 0% | -3.7%
O=C(COc1ccc(S(=O)(=O)N2CCCC2)cc1)NCC1CCCO1 (stereo not given) | -27 | -1% | -4% | 1.5%
COc1cccc(OCCOCCOc2ccc(C)cc2[N+](=O)[O-])c1 | 1 | -1% | 10% | 7.1%
CN(C(=O)c1cccs1)c1ccc(OCC(=O)N2CCC(C(N)=O)CC2)cc1 | -1 | 5% | 13% | -0.2%
CC1CCCCN1C(=S)NC(=O)c1cc(Br)ccc1Cl (stereo not given) | / | / | -1% | 5.6%
COc1ccccc1OCc1ccc(C(=O)NCC2CCCO2)cc1 (stereo not given) | / | / | -3% | -0.3%
CN(C)CCN(C(=O)c1cccc(Cl)c1)c1nc2c(Cl)cccc2s1 | 0 | -2% | 0% | 5.8%

An excerpt from above, limited to Rango dissoc inh and Rango complex inh.
structure | Rango dissoc inh | Rango complex inh
Cc1ccc(NC(=O)c2cc(=O)[nH]c3ccccc23)cc1 | 14% | 1.4%
COc1ccccc1OCc1ccc(C(=O)NCC2CCCO2)cc1 (stereo not given) | -3% | -0.3%

More records follow:
SMILES | GLA inh pH 4.5 | miR-21 FLuc | Rango dissoc inh | Rango complex inh
COC(=O)C(O)(CC(=O)Nc1ccccc1OC)C(F)(F)F (stereo not given) | 0 | -10% | 14% | -1.2%
CCc1cc(C(=O)NC2CCCN(Cc3ccccc3F)C2)n(C)n1 (stereo not given) | / | 17% | 0% | 6.6%
Cc1ccc(S(=O)(=O)N2CCOCC2)cc1C(=O)NNC(=O)c1ccoc1C | -7 | 1% | 1% | 1.0%
Cc1ccc([N+](=O)[O-])c(OCCCNCC(C)O)c1 (stereo not given) | -7 | -5% | -7% | -3.0%
CCCCn1c(N)c(N(Cc2ccccc2OC)C(=O)c2cc(=O)[nH]c3ccccc23)c(=O)[nH]c1=O | / | / | 7% | -2.6%
Cc1nonc1C1CCCN1C(=O)c1cc(COc2cccc(C(F)(F)F)c2)on1 (stereo not given) | / | 2% | -6% | 0.7%
N#CC1=C(N)N2C(=C(C#N)C1c1ccccc1)Sc1ccccc12 (stereo not given) | -1 | -2% | / | /
O=C(N/C(=C\c1ccc(Br)cc1)c1nc2ccccc2[nH]1)c1ccco1 | 5 | -19% | -6% | 1.7%
O=C(C(Cc1ccccc1)n1cccc1)N1CCc2ccccc21 (stereo not given) | 2 | 2% | -1% | 0.3%
Cn1c(=O)cc(SCC(=O)N2CCN(C3CCCCC3)CC2)c2ccccc21 | / | / | -5% | -0.7%
COC(=O)c1cc(=O)[nH]c(SCc2cccc(C)c2)n1 | -17 | -3% | -7% | 1.4%
O=C1CCC/C(=N/Nc2ccc(Cl)cc2)C1 | -2 | -30% | 7% | -0.7%

High-throughput results: PubChem, National Center for Advancing Translational Sciences (NCATS)
